# Screens (PubChem BioAssay)
# D2 agonist: activates the human D2 dopamine receptor; DiscoveRx PathHunter D2 beta-arrestin, luminescence, 90 min; 100% = 57 uM dopamine signal; 0.084% of 360,000 active; activation, % (no concentration beside the values); in the data active = activation above about 40%; inconclusive = about 15% to 40%; inactive = below about 15%; further: compound concentration not given in the record; the text of the record calls up to 30% inactive
#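 Agonist mode: compounds alone added to overnight-plated D2 PathHunter cells for 90 min at 37 C, with 57 uM final dopamine (EC100) defining full response. Beta-arrestin recruitment detected by chemiluminescent reagent, read after 1 h at ambient temperature.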
# TRPV1 PAM: human TRPV1 potentiation; potentiation, % at 8.33 µM; Q8NER1; 0.02% of 320,000 active; TRPV1-expressing cells, Fluo-8 calcium influx, capsaicin EC20 potentiation; host cell line not named in the record; control for the full effect not named in the record; AID 540277; active means potentiation above 80%; inconclusive means 30% to 80%; inactive means below 30%; further: 0% is about no effect
#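 TRPV1-expressing cells were cultured overnight at 35.5C and loaded with Fluo-8 calcium dye for 40 to 90 min at room temperature. After a 10 s baseline, compound was added and calcium influx was read kinetically for 3 min (ex 480/em 520 nm).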
# Sfp inh: Sfp phosphopantetheinyl transferase inhibition; Q9F4F7; Biochemical Sfp PPTase activity, qHTS; Potency, µM, for the others: max response, negative = inhibition, usual class: inhibitors; 3.5% of 310,000 active; AID 1490; active means well fitted inhibition curve with a large enough effect; inconclusive means small, poorly fitted or top-dose-only effect, or another doubt; inactive means no such curve, though single readings can be large or run the other way;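 further: the enzyme is Sfp with the accession as filed and its product quenches rhodamine fluorescence; potency means the concentration at half of the fitted maximal effect; 0% = enzyme reaction without inhibitor and -100% = no enzyme wells; top concentration of the series not given in the record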
#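 Reaction rates are the 30-min fluorescence difference (ex 525, em 598 nm) in wells containing 15 nM Sfp, 5 uM rhodamine-CoA and 12.5 uM BHQ-2-YbbR at pH 7.6 with 10 mM MgCl2.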
# Six1-Eya2 blk: inhibitors of human Six1/Eya2 interaction; Q15475+O00167; AlphaScreen GST-Six1/His-Eya2 binding, biochemical; active compounds read low; control for the full effect not named in the record; activity change, % (no concentration beside the values); 0.56% of 360,000 active; AID 651725; in the data active = activity change below about -65%; inconclusive = about -30% to -65%; inactive = above about -30%; further: on the % scale 0 is the no-effect control and ±100 the full control effect
# Target sequence (O00167 whole entry, looked up): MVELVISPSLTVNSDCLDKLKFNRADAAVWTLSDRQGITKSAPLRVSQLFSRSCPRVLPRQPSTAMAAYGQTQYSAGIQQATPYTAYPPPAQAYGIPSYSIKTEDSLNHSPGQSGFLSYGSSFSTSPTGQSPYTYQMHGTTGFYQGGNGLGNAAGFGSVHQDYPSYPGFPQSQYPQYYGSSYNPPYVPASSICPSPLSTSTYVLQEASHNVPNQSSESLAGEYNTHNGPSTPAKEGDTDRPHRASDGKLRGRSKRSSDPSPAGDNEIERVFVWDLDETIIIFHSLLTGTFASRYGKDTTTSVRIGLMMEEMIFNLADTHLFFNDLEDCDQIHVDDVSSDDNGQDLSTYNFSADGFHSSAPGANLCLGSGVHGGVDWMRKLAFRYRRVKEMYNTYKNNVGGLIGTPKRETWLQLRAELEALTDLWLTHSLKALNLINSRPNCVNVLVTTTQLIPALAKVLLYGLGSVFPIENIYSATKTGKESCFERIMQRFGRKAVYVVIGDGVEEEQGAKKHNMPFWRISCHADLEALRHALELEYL
# Target sequence (Q15475 whole entry, looked up): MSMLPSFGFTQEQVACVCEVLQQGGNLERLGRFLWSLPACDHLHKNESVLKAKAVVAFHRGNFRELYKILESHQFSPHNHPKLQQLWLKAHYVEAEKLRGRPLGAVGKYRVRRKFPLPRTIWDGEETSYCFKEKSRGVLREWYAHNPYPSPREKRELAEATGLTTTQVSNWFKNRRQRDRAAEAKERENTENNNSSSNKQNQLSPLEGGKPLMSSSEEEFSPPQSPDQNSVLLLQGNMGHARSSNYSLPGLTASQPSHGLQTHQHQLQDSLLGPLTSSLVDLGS
#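 AlphaScreen with GST-Six1 and His-Eya2 (5X mix: 250 nM and 500 nM), glutathione donor and nickel acceptor beads; buffer 50 mM Tris pH 8.0, 300 mM NaCl, 1 mM TCEP; 1 h at 37 C in the dark.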
# PINK1 expr mod: PINK1 expression modulation | 0.2% of 410,000 active | AID 624263 | PINK1 immunofluorescence, high-content cytometry, 24 h | Potency, µM (doses to about 76.6 µM), without a hit: top-dose activation (PINK1 increase), actives largely listed as activators; active = well fitted activation curve with a large enough effect; inconclusive = small, poorly fitted or top-dose-only effect; inactive = flat fitted curve, though single readings scatter; cell line not stated here;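 further: potency means the concentration at half of the fitted maximal effect; % of control where 0% means no effect; nearly all actives have a fitted effect of over 65% in size; a mitochondrial uncoupler was the plate control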
#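 A stable cell line was treated with compounds at 5 concentrations for 24 hours, with CCCP as control. PINK1 levels and mitochondrial localization were measured by immunofluorescence with mitochondrial, cell and nuclear markers after fixation, read by laser-scanning cytometry.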
# CtBP-E1A inh: blocks the CtBP interaction with E1A | AlphaScreen GST-E1A/His-CtBP binding, 1536-well; active compounds read low; control for the full effect not named in the record | 0.49% of 340,000 active | AID 651724 | activity change, % (concentration not given with the values); in the data active means activity change below about -65%; inconclusive means about -30% to -65%; inactive means above about -30%; further: on the % scale 0 is the no-effect control and ±100 the full control effect
#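 AlphaScreen with 125 nM GST-E1A and 125 nM His-CtBP (5X stocks) in Tris pH 8.0, 300 mM NaCl, BSA, Tween 20, TCEP. Compounds preincubated 2 h at 37 deg C, then glutathione donor/nickel acceptor beads added for 1 h at 37 deg C in dark.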
# D2 potentiator: potentiates the human D2 dopamine receptor allosterically | DiscoveRx D2 beta-arrestin cells, luminescence, 90 min; 100% = 57 uM dopamine signal | 0.23% of 360,000 active | potentiation, % (no concentration beside the values) | P14416; active = potentiation of 50% or more; inconclusive = 30% to 50%; inactive = 30% or less;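 further: compound concentration not given in the record; tested on top of an EC20 dose of dopamine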
#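 PathHunter beta-arrestin assay in DiscoveRx D2 cells. Compounds were added with an EC20 of dopamine (50 nM final) for 90 min at 37 deg C. Luminescence was read 1 h after detection reagent, with 57 uM dopamine as the EC100 control.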
# The depositor's hits bear a star; ? = inconclusive; / = no result given; & = joins results of further samples; [ ] = remark or other dose. Hits appear at their usual frequency; about 3.7% have a hit in one of these screens.
# Screens in order: D2 agonist	TRPV1 PAM	Sfp inh	Six1-Eya2 blk	PINK1 expr mod	CtBP-E1A inh	D2 potentiator
- COc1ccccc1[C@@H]1C(c2cccc(C)c2)=NN(c2ccc(Br)cc2)[C@H]1C(=O)N1CCOC1=O
→ -0.1	/	7%	19	-0.2%	16	/
- Cc1onc(-c2ccccc2)c1C(=O)N1CCN(c2ncccc2C(F)(F)F)CC1
→ 1.5	0	14%	-4	0.7%	-3	-12
- CCCn1nc(C(=O)N2CCCc3ccccc32)c2ccccc2c1=O
→ -2.3	5	14%	3	7.4%	0	-8
- COc1c(C)cc(C(O)c2ncc(-c3ccccc3)[nH]2)cc1C (stereo not given)
→ -2.4	/	/	-12	8.3%	-10	-11
- COc1ccc(-n2c(=O)c3c4c(sc3n(CC(=O)NCC3CCCO3)c2=O)CCCC4)c(OC)c1 (stereo not given)
→ -2.2	2	14%	0	-0.6%	-8	-6
- O=[N+]([O-])c1cccc(-c2cc3cccc[n+]3cc2-c2cccc([N+](=O)[O-])c2)c1
→ -2.2	-2	34%[activator]	-6	4.0%	9	-1
- O=C(CSc1nc2ccccc2c(=O)[nH]1)c1cccs1
→ -4.6	3	-17%	-9	1.5%	0	-26
- CCOc1ccc(NC(=S)NCCCN2CCN(C3CCCCC3)CC2)cc1
→ -3.1	-3	29%	-9	1.2%	5	-16
- COc1ccc(-c2cc(C(F)(F)F)nc(SCCC(=O)N3CCN4CCCC4C3)n2)cc1 (stereo not given)
→ -1.4	-5	-2%	13	-0.6%	-5	-7
- CNC(=O)C[C@H]1C(=O)N(C2CCCCC2)C[C@@H]1CSC
→ -8.1	/	/	1	0.6%	4	4
- Cc1cccc(N2C(=O)C(CC(=O)Nc3cccc(F)c3)N(CCc3ccncc3)C2=O)c1 (stereo not given)
→ -2.9	-10	18%	-7	0.0%&0.4%	8	-33
- CCN(CC)C(=O)c1[nH]cnc1C(=O)N[C@@H](CC(C)C)C(=O)OC(C)(C)C
→ -4.9	-19	8%	-3	-0.5%	-2	-14
- NS(=O)(=O)c1cccnc1Nc1cccc(Cl)c1
→ 11	-7	14%	-4	1.1%	7	-5
- O=C(Cc1nnc(NC(=O)Nc2ccc(F)cc2)s1)Nc1ccccc1
→ -1.0	4	4%	0	0.6%	5	-1
- CC1(C(=O)Nc2cccc3c2CCCC3)CCN1C(=O)CCC1CCCC1 (stereo not given)
→ -2.6	/	/	0	14%	2	-21
- COc1ccc2cc(C(c3nnnn3CCc3ccccc3)N3CCC(O)CC3)c(=O)[nH]c2c1 (stereo not given)
→ -2.5	7	2%	-2	-0.2%	10	-19
- Cc1cccc(-n2nnc(C(=O)NCc3ccco3)c2N)c1
→ -1.0	/	16%	0	1.8%	12	-4
- COc1ccc(CC(=O)Nc2nc(C(C)(C)C)cs2)cc1
→ 2.8	?	16%	3	4.2%	9	7
- Cc1c(C(=O)/C=C/N(C)C)nnn1-c1ccc(F)c(Cl)c1
→ 3.0	5	23%	-3	0.7%	-15	-3
- CN1CCN(NC(=O)CN2C(=O)S/C(=C\c3c(Cl)cccc3Cl)C2=O)CC1
→ 1.7	-14	?	-18	1.2%	5	4
- CC(C)C[C@H](NC(=O)CCn1nnc2ccccc2c1=O)C(=O)O
→ -0.1	-1	23%	0	-0.3%	-5	-3
- COc1cc(/C=C/C(=O)OCC(=O)N2CCC(Cc3ccccc3)CC2)ccc1O
→ -0.8	5	-6%	-30	-0.5%	-4	1
- O=C(NC(NC(=S)Nc1ccc(Cl)cc1)C(Cl)(Cl)Cl)c1ccco1 (stereo not given)
→ -0.2	7	-6%	-10	?	0	-15
- CCC(CC)C(=O)N1CCCC(c2nc(-c3cccs3)no2)C1 (stereo not given)
→ -2.1	-1	17%	5	-0.7%	-1	0
- O=C(CSc1ncnc2nc[nH]c12)c1ccc(Cl)cc1
→ 5.7	-11	50µM*	4	4.2%	-26	-1
- O=C(CN1C(=O)C(=O)N(C2CCCC2)C1=O)Nc1ccccc1OC(F)F
→ -5.5	/	/	-1	-1.4%	-17	-4
- CN(C)c1ccc(C(=O)N2CCCC(N3CCN(Cc4ccc5c(c4)OCO5)CC3)C2)cc1 (stereo not given)
→ -4.8	4	8%	-2	-3.7%	0	-44
- O=C(CS(=O)(=O)c1cn(Cc2cccc(F)c2)c2ccccc12)N1CCOCC1
→ 0.2	-23	11%	6	-2.6%	5	8
- O=C(COC(=O)CNC(=O)c1cccc([N+](=O)[O-])c1)Nc1ccccc1OC(F)F
→ 0.0	-2	10%	-5	-0.7%	/	-6
- CCOC(=O)N1CCN(C(=O)c2cccn3c(=O)c4c5c(sc4nc23)CCCC5)CC1
→ -4.6	0	15%	-1	1.2%	/	-3
- COc1cc(/C=C/C(O)=C/C(=O)/C=C/c2ccc(O)cc2)ccc1O
→ -4.8	10	/	9	27%	-1	-6
- C=CCn1c(-c2ccc(F)cc2)n[nH]c1=S
→ -11	5	-20%	4	-0.5%	-4	-9
- CCN(C(=O)CN1CCN(c2ccccc2O)CC1)c1c(N)n(Cc2ccccc2)c(=O)[nH]c1=O
→ -7.5	8	-6%	-3	0.6%	-9	-21
- CCO[C@H]1OC(C(=O)NC2CC2)=C[C@@H](c2ccccc2)[C@@H]1CCCO
→ -0.6	?	15%	-1	1.9%	0	-4
- CCn1nc(C(=O)NNC(=O)CCOc2cc(C)ccc2C)c2ccccc2c1=O
→ -0.1	19	17%	-3	1.6%	5	4
- CSCCC(NC(=O)COc1ccccc1)C(=O)N(C)Cc1c(F)cccc1Cl (stereo not given)
→ 6.7	/	/	-12	3.2%	13	8
- COc1ccccc1N/C(=N/S(=O)(=O)c1ccc(Cl)cc1)c1ccccc1
→ -3.7	3	17%	-1	-3.7%[38.3 µM]	-3	-7
- COc1ccc(-c2nnc(SCC(=O)Nc3ccc4c(c3)OCCO4)n2N)cc1OC
→ -0.5	-11	15%	1	2.5%	2	-5
- CN(CC1CCOCC1)C(=O)CC1C(=O)NCCN1Cc1ccccc1F (stereo not given)
→ -0.5	-2	2%	-2	-2.4%	3	-17
- Cc1cc(Nc2cccc(C)c2C)n2ncnc2n1
→ -2.3	8	2%	9	-1.5%	0	-2
- O=C(Cn1nc(C(=O)O)c2ccccc2c1=O)Nc1nc(-c2ccccc2)cs1
→ 1.1	-8	13%	3	4.0%	7	-7
- CCc1cccc(CC)c1NC(=O)c1ccc(-c2cc(Cl)ccc2Cl)o1
→ -4.5	/	/	-2	3.0%	6	-4
- CCOc1ccc(NC(=O)CN2CCN(CC(=O)Nc3ccc(C(=O)OC)cc3)CC2)cc1
→ -0.7	?	1%	15	1.2%	2	-1
- O=C(c1cc2ccccn2n1)N1CCN(c2cccc(C(F)(F)F)c2)CC1
→ 1.9	-9	9%	-7	?	-9	0
- CN(C(=O)c1nn(C)c2c1CSc1ccccc1-2)c1ccccc1Cl
→ -1.7	-2	-6%	-3	2.7%	-4	-9
- CCCCNC(=O)C1CCN(S(=O)(=O)N2CCOCC2)CC1
→ 1.4	3	3%	5	-1.1%	0	-3
- COCCN(C(=O)c1ccc(NC2CC2)c([N+](=O)[O-])c1)c1c(N)n(CC(C)C)c(=O)[nH]c1=O
→ -4.1	2	/	-9	1.8%	/	-4
- Cc1ccc(-c2nn3cnnc3c3ccccc23)cc1
→ -2.9	9	28%	-12	4.7%	-9	-5
- Cc1cccc(N2CCN(S(=O)(=O)c3c(C)[nH]c(C)c3C(=O)N3CCCCC3)CC2)c1C
→ 0.0	3	14%	9	-0.3%	0	-16
- CC(C)CN(C(=O)c1ccc(-n2cncn2)c([N+](=O)[O-])c1)C1CCS(=O)(=O)C1 (stereo not given)
→ 2.1	5	/	0	2.6%	7	0
- S=C(Nc1ccccc1)N1CCN(C2CCCCC2)CC1
→ -2.2	-2	20%	5	-3.0%	-5	-31
- O=C(Nc1ccc(N2CCN(C(=O)c3cccs3)CC2)cc1)c1ccc(F)cc1
→ 4.8	2	-2%	-9	-0.6%	-11	-1
- Cc1ccc(C(=O)OCC(=O)N(CC(C)C)c2c(N)n(Cc3ccccc3)c(=O)[nH]c2=O)cc1[N+](=O)[O-]
→ -1.3	12	/	6	-3.4%	5	-19
- Cc1nn(CC(=O)Nc2c(C)n(C)n(-c3ccccc3)c2=O)c(C)c1[N+](=O)[O-]
→ -3.3	11	13%	1	-0.1%	3	3
- Cc1ccc(CSCCNC(=O)CSc2ccccc2)cc1
→ 2.4	-27	-19%	6	-1.8%	17	-9
- CC(C)(C)c1ccc(S(=O)(=O)NC(=O)C2(C)CCN2C(=O)Cc2ccc(-c3ccccc3)cc2)cc1 (stereo not given)
→ -3.3	/	/	-25	1.6%	-6	1
- CCOc1ccc2nc(NC3=NC(c4ccc(OC)cc4)CC(=O)N3)nc(C)c2c1 (stereo not given)
→ 4.2	2	22µM*	-13	-7.6%[38.3 µM]	3	-10
- CCn1cc(C2=NC(c3ccccc3)CO2)c2ccccc21 (stereo not given)
→ -8.1	-2	-9%	13	0.9%	-11	-15
- O=C(NCCCSc1ccccc1)c1cccnc1
→ 5.6	7	15%	2	-0.4%	9	-3
- Cc1ccc(C)c(N2CCN(C(=O)CCc3nc(-c4cccc(C(F)(F)F)c4)no3)CC2)c1
→ -0.6	/	/	0	0.6%	3	/

# (cont.)
# Screens in order: D2 agonist	TRPV1 PAM	Sfp inh	Six1-Eya2 blk	PINK1 expr mod	CtBP-E1A inh	D2 potentiator
- COc1ccc(CN(C)CC(O)COc2ccc(-c3ccccc3)cc2)cc1OC (stereo not given)
→ 2.2	2	-13%	-28	-0.2%	-12	-10
- Cc1ccc(CCNC(=O)C2CCN(S(=O)(=O)N3CCCC3)CC2)cc1
→ -0.6	-7	17%	3	1.0%[38.3 µM]	16	-13
- CCOC(=O)C1(CCCc2ccccc2)CCN(C(=O)C2CCCN(C(N)=O)C2)CC1 (stereo not given)
→ -1.1	-1	-1%	6	1.0%	4	-4
- Cc1ccc(CC(=O)OCC(=O)NC2CCCC(C)C2C)cc1C (stereo not given)
→ 1.5	-6	9%	9	0.9%	3	14

# Just PINK1 expr mod (3 entries from above):
Molecule | PINK1 expr mod
Cc1ccc(CC(=O)OCC(=O)NC2CCCC(C)C2C)cc1C (stereo not given) | 0.9%
CCOC(=O)C1(CCCc2ccccc2)CCN(C(=O)C2CCCN(C(N)=O)C2)CC1 (stereo not given) | 1.0%
COc1ccc(CN(C)CC(O)COc2ccc(-c3ccccc3)cc2)cc1OC (stereo not given) | -0.2%
